Screening results as filed in PubChem.
PKD1 kinase inh – inhibitors of human PKD1 kinase, biochemical, fluorescence polarization. inhibition, %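 (about 10 µM by stock and volumes)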. hit rate 0.056% among 200,000. PKD1 kinase fluorescence polarization assay. Serine/threonine-protein kinase D1 (Homo sapiens), Q15139;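 active = inhibition of 50% or more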;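 also: controls were vehicle for no effect and a reference inhibitor for full effect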
Target sequence (Q15139 whole entry, looked up): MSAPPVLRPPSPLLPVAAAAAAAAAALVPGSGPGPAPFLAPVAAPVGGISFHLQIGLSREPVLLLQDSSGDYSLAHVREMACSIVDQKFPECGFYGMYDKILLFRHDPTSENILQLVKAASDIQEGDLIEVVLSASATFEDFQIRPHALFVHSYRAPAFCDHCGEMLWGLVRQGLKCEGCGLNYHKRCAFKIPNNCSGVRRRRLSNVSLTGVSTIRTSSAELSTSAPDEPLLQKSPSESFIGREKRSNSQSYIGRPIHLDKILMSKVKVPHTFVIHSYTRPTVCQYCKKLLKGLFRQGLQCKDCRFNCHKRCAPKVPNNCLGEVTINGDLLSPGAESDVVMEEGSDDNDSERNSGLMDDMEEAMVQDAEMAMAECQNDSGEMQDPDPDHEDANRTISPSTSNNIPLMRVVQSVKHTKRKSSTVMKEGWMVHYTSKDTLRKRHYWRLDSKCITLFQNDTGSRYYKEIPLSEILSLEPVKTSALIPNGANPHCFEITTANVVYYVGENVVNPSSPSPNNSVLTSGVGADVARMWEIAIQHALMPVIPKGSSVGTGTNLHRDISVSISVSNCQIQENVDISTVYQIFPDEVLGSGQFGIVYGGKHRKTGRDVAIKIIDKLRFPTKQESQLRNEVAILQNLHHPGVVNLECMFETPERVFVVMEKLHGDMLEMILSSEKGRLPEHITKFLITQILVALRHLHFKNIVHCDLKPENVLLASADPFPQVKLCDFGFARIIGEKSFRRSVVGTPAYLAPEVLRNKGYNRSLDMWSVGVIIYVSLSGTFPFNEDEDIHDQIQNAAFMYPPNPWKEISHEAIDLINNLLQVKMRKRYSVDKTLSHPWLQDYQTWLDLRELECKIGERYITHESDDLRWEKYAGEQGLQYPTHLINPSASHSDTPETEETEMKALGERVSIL
GALR2 ag – GALR2 receptor agonists, primary screen, cell-based. GALR2-expressing cells, agonist activation read-out. hit rate 0.48% among 140,000. Galanin receptor type 2 (Homo sapiens), O43603. AID 803, 2007. activation, %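 (tested at 5 µM)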;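 active = above mean plus 3 SD of all compounds, about 5% in these data, not always enough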;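 also: 0% = vehicle buffer wells and 100% = reference agonist at full effect; tested in CHO reporter cells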
HSV replic up – enhancers of HSV replication in host cells, fold increase, host cell viability. HSV replication augmentation in cells. maximum fold increase. hit rate 0.005% among 220,000. AID 1956, 2009;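 active = peak rise of 1.5-fold or more in the series; tested in PC3 cells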;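 also: first round at 10 µM; read as green reporter fluorescence; hits show the peak of a series up to 25 µM; 1 = signal of infected wells without compound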
RGS16-Gao HTS – modulators of RGS16 binding to Galphao, primary screen, biochemical, human proteins, multiplexed bead flow cytometry; bead-based flow cytometry RGS16-Galphao binding, fluorescence; actives lie on both sides; binding response (% of control), % at 10 µM; Regulator of G-protein signaling 16 (Homo sapiens) + Guanine nucleotide-binding protein …; hit rate 0.38% among 220,000; AID 1441, 2008;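 active = below 25% or above 175%, edge rows of some plates excepted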;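 also: Galphao activated by GDP with aluminum fluoride before binding; 100% = wells without compound and 0% = beads without RGS; some results beyond the cut were filed as inactive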
Insulin prom inh – inhibitors of insulin promoter-driven GFP, primary screen, imaging, TRM-6 cells (human fetal islet line), eGFP reporter, cell count; AID 1273, 2008; hit rate 0.9% among 130,000; inhibition, % at 2 µM; reporter expression induced with tamoxifen;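 active = inhibition above the mean plus 3 SD, with well images judged a real hit on visual review, cut at about 60% in these data, passing the limit was not always enough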
Insulin prom inh cell count – also measured in Insulin prom inh; calls as there; normalized cell count, %; measured here: cell count, toxicity; reference of the scale not given here;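 cells exposed to compound for 48 h; stained nuclei by imaging scaled within each plate; lower means fewer cells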
HSV replic up primary fold – also measured in HSV replic up; calls as there; fold increase; compound at 10 µM; measured here: primary screen fold increase 10 uM; tested in PC3 cells;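 GFP signal in the first replicate; 1 = infected wells without compound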
* hit, by the source's call; i = inactive; . = not tested or not shown.

Values run as follows: PKD1 kinase inh	GALR2 ag	HSV replic up	HSV replic up primary fold	RGS16-Gao HTS	Insulin prom inh	Insulin prom inh cell count
CCn1c(CS(=O)Cc2ccc(Cl)cc2Cl)nnc1SCc1c(Cl)cccc1Cl (centres undefined)
→ -8	-1.1	i	0.88	87	12	80
Cc1nn(-c2ccccn2)c2c1C(=O)CC(C)(C)C2Br (centres undefined)
→ .	.	i	0.88	100	.	.
O=C(CSC1=NC(=O)C(c2ccccc2)C(=O)N1)Nc1ccccc1Cl (centres undefined)
→ -3	-0.7	i	0.94	99	3	151
CC(C)Cc1csc(NC(=O)c2ccc(Cl)cc2)c1C(=O)O
→ 6	-1.0	i	0.97	99	.	.
O=C(Nc1nc2cc3c(cc2s1)OCCO3)C1=COCCO1
→ .	.	i	0.97	104	.	.
CCOc1ccccc1NC(=O)COC(=O)C(CC(C)C)N1C(=O)C2CC=CCC2C1=O (centres undefined)
→ 4	-0.5	i	1.2	89	.	.
Cc1c(Br)c([N+](=O)[O-])nn1C(C)C(=O)NCC1CCCO1 (centres undefined)
→ -3	.	i	0.94	103	.	.
CN(CC(=O)N1CCc2ccccc21)S(=O)(=O)c1cccc2cccnc12
→ 6	-0.5	i	0.95	99	.	.
COC(=O)N/N=C1\CCCc2c(C)cc(C)cc21
→ -3	.	i	0.98	102	-29	112
O=C(OCC(=O)N1CCCCCC1)c1cccs1
→ -6	3.0	i	0.99	99	17	73
O=C(COC(=O)CCC(=O)Nc1nccs1)NCc1ccco1
→ -2	-1.4	i	0.72	102	47	110
COc1ccc(-n2c(=O)c3ccccc3n(CC(=O)Nc3ccccc3OC)c2=O)cc1
→ 0	.	i	1.2	106	46	105
COc1ccc(F)c(C2C(C#N)=C(N)Oc3n[nH]c(C(C)(C)C)c32)c1 (centres undefined)
→ 1	0.2	i	0.94	100	12	85
COc1ccc(C2CC(c3cccs3)=NN2C(=O)CSc2nncn2C)cc1OC (centres undefined)
→ -4	.	i	0.94	100	.	.
Cc1[nH]c(=O)[nH]c(=O)c1/C=N/NC(=O)[C@H](CC(C)C)NC(=O)OC(C)(C)C
→ 2	-3.2	.	.	72	25	127
COCCn1c(Cc2cccn2C)nnc1SCC(=O)Nc1nccs1
→ 3	.	i	0.96	98	.	.
CN1C(=O)C(=C2CCCCCC2)SC1=S
→ -19	-1.6	i	0.89	95	.	.
Cc1onc(-c2c(F)cccc2Cl)c1C(=O)OCC(=O)NC(=O)NCC(C)C
→ -10	.	i	1	101	-147	109
CCCn1c(C(O)c2ccc3c(c2)OCO3)nc2ccccc21 (centres undefined)
→ 9	-0.5	i	1.1	96	13	131
Cc1ccc(C)c(C(=O)C(C)OC(=O)c2cccn2C)c1 (centres undefined)
→ -8	-2.4	i	1	130	.	.
COc1cc(OC)cc(-c2cc(N)n(S(=O)(=O)Cc3ccccc3)n2)c1
→ 0	-1.3	i	0.89	103	.	.
O=C(CSc1ncnc2ccccc12)Nc1cccc(S(=O)(=O)N2CCCC2)c1
→ 4	.	i	0.77	103	.	.
CC(Oc1ccc(Cl)cc1Cl)c1nc(-c2ccc(NC(=O)c3ccco3)cc2)no1 (centres undefined)
→ 8	-1.0	i	0.97	99	15	139
O=C(Nc1ccccn1)c1ccc2nc(-c3ccccc3)c(-c3ccccc3)nc2c1
→ 1	.	i	0.81	107	60	169
CCOc1ccc(NC(=O)CN(C)S(=O)(=O)c2ccc3c(c2)CCC(=O)N3)cc1
→ .	.	i	0.98	99	.	.
Fc1ccc(-c2cc(C(F)(F)F)nc(-n3cncn3)n2)cc1
→ -9	-0.9	i	1.3	105	.	.
CCN(CC)S(=O)(=O)c1cc(C(=O)O)c(Cl)cc1Cl
→ -2	-1.7	i	0.87	106	-21	116
O=C(/C=C/c1cccc(F)c1)N1CCc2ccccc21
→ 5	-1.0	i	0.93	107	0	87
CCOc1ccc(NC(=O)CSc2nc(C)c3c(c2C#N)CCCC3)cc1
→ -6	1.1	i	0.7	111	-38	91
Cc1ccc(S(=O)(=O)Oc2ccccc2/C=N/NC(N)=S)cc1
→ -3	-0.5	i	0.62	170	-103	9

The closing 4 entries of the section before come first, to join the parts:
Values run as follows: PKD1 kinase inh	GALR2 ag	HSV replic up	HSV replic up primary fold	RGS16-Gao HTS	Insulin prom inh	Insulin prom inh cell count
CCN(CC)S(=O)(=O)c1cc(C(=O)O)c(Cl)cc1Cl
→ -2	-1.7	i	0.87	106	-21	116
O=C(/C=C/c1cccc(F)c1)N1CCc2ccccc21
→ 5	-1.0	i	0.93	107	0	87
CCOc1ccc(NC(=O)CSc2nc(C)c3c(c2C#N)CCCC3)cc1
→ -6	1.1	i	0.7	111	-38	91
Cc1ccc(S(=O)(=O)Oc2ccccc2/C=N/NC(N)=S)cc1
→ -3	-0.5	i	0.62	170	-103	9
Cn1c(=O)n(C)c2cc([N+](=O)[O-])c(N3CCN(S(=O)(=O)c4ccc(C(C)(C)C)cc4)CC3)cc21
→ -15	-0.8	i	0.87	107	.	.
Cc1c(N2C(=O)CS/C2=N\N=C\c2ccc(Br)cc2)c(=O)n(-c2ccccc2)n1C
→ 3	-2.9	i	1	98	11	77
NC(=O)C(c1ccc(Cl)cc1)c1ccc(Sc2ccc(Cl)cc2)nn1 (centres undefined)
→ -1	-3.0	i	0.89	107	32	95
COC(=O)C(=C/C=C/N1CCOCC1)C(=O)OC
→ .	.	i	0.99	100	.	.
Cc1cccc(C)c1-n1c(C)nn(CC#N)c1=O
→ -4	.	i	0.91	99	.	.
Cc1onc(-c2ccccc2)c1C(=O)NC(=S)Nc1sc2c(c1C#N)CCC(C)C2 (centres undefined)
→ -2	-0.8	i	1	94	.	.
O=c1[nH]c2ccccc2n1CCCN1CCCCC1
→ -5	.	i	0.98	112	.	.
CCCN(CCC)CC(O)Cn1cc(/C=C/C(=O)c2ccccc2)c2ccccc21 (centres undefined)
→ -2	.	i	0.78	104	.	.
Cc1ccc(-n2nc3ccc(NC(=S)NC(=O)/C=C/c4ccco4)cc3n2)cc1
→ -4	-0.4	i	1.1	33	24	75
COc1cc(/C=N/NC(=O)Cn2nc([N+](=O)[O-])cc2C)cc(Br)c1OCc1ccccc1
→ 0	-2.3	i	1.1	104	-23	136
CC(C)OCCCNc1ncc2c(n1)CC(c1ccccc1)CC2=O (centres undefined)
→ -4	.	i	0.78	96	-91	91
COc1ccc(CC(=O)NCc2nnc(SCc3ccc(C)cc3)n2C)cc1
→ 0	0.0	i	1	103	-43	53
O=c1[nH]c(SCc2cccc(Cl)c2)nc2[nH]ncc12
→ -6	.	i	0.87	110	43	205
CC(Cl)C(=O)Nc1cc(C(F)(F)F)ccc1N1CCOCC1 (centres undefined)
→ 2	.	i	1.1	100	.	.
Cc1c(C(=O)Nc2ccc(Cl)cc2)c2ccccn2c1C(=O)c1ccc(F)cc1
→ -3	-1.3	i	0.94	96	25	80
CCN(CC)C(=O)c1cc(Cl)ccn1
→ -7	.	i	1	103	.	.
Cc1oc(-c2ccc3c(c2)OCCO3)cc1C(=O)NC(Cc1ccccc1)C(=O)O (centres undefined)
→ -5	.	i	1.1	95	.	.
NC1=NC(=O)S/C1=C\c1ccc(O)cc1
→ 9	-1.6	i	0.94	102	-44	87
Cc1ccc(NC(=O)ON=C2CCCC2)cc1
→ -9	-0.8	i	0.94	95	-11	65
CCn1c(CC(=O)Nc2ccc(C)cc2)nnc1SCC(=O)NCCc1ccccc1
→ -8	-2.3	i	0.89	106	-50	179
CC(C)(C)c1ccc(CN(Cc2ccco2)Cc2nnnn2C2CCCC2)cc1
→ -6	-1.1	i	0.86	98	-30	26
O=C(O)c1cnc2ccccc2n1
→ -1	-2.7	i	1.1	95	85*	53*
c1ccc(CSc2ncnc3c2oc2ccccc23)cc1
→ -13	-1.2	i	0.88	.	-19	125
Cc1c(C(=O)OCC(=O)Nc2ccccc2OC(F)F)cccc1[N+](=O)[O-]
→ 0	-0.4	i	0.99	106	18	139
CCOP(=O)(OCC)/C(=N/OC(=O)c1cccc([N+](=O)[O-])c1)C(N)=O
→ .	.	i	1.1	106	.	.
COc1ccc(N2CCN(C(CNS(=O)(=O)c3ccc4c(c3)OCCO4)c3ccco3)CC2)cc1 (centres undefined)
→ 3	-0.8	i	1.1	98	.	.
COc1ccc(C(=O)N2c3ccccc3CC2C)cc1OC (centres undefined)
→ -5	-1.8	i	0.98	89	3	138
Cc1sc(NC(=O)CSc2ncn(-c3ccccc3)n2)nc1-c1ccccc1
→ 5	-1.7	i	0.92	97	-50	134
Nc1nonc1C(=O)NCCNS(=O)(=O)c1ccc(F)cc1
→ -7	-0.6	i	0.92	100	-8	127
COc1ccc(NC(=O)CSc2nc3c([nH]c4ccccc43)c(=O)n2C)cc1
→ 4	.	i	1	96	-11	88
C#CC[N+](C)(C)CCCCCCCC
→ -1	-1.6	i	0.77	104	3	106
Cc1cc(C(=O)Nc2ccccc2)c(C)o1
→ 1	-1.3	.	.	97	35	94
COc1ccc(/C=C/C(=O)N(C(C)C)C(C)C)cc1Br
→ 5	-4.2	i	1	106	-25	113
O=C(Nc1ccc2c(c1)OCCO2)c1ccc(Cl)c([N+](=O)[O-])c1
→ 2	-0.3	i	0.81	99	-19	104
COc1ccccc1C1(O)CCN(CC(=O)Nc2nc(-c3ccccc3)cs2)CC1
→ -8	.	i	0.8	99	.	.
CCCCCn1nnc2c(=O)oc3ccccc3c21
→ 9	.	i	0.93	100	.	.
COc1ccc2cc3c(N)nn(C(=O)c4ccccc4[N+](=O)[O-])c3nc2c1
→ -8	-1.7	i	0.52	104	57	104
CCOC(=O)C1(Cc2cccc(OC)c2)CCN(Cc2cc(OC)ccc2OC)CC1
→ -2	.	i	0.91	96	.	.
CCOc1ccccc1C1C(C#N)=C(N)SC(N)=C1C#N
→ 2	1.3	.	.	116	-36	75
Cc1onc(-c2c(Cl)cccc2Cl)c1C(=O)NC1C(=O)N2C1SC(C)(C)C2C(=O)O (centres undefined)
→ -2	.	i	1.1	109	-15	71
COC(=O)CCCC1=CC2=C(c3ccccc3)C(=O)C(C)(OC(=O)C3CCCC3)C(=O)C2=CN1c1ccccc1 (centres undefined)
→ .	.	i	0.99	98	.	.
O=C(NCCO)c1scc2c1OCCO2
→ -6	-2.8	i	1	97	40	161
Cc1nn(C)cc1/C=N/NC(=O)C(C)(C)Oc1ccc(Cl)cc1
→ -8	-1.7	i	0.89	103	-13	82
O=C(NCc1ccccc1)c1onc(CSc2ccccn2)c1C(=O)NCc1ccccc1
→ .	.	i	0.99	99	.	.
O=C(COC(=O)c1cnc(Cl)c(Cl)c1)Nc1ccc(S(=O)(=O)N2CCCC2)cc1
→ -9	-0.6	i	1	106	21	100
COc1ccc(C)c(NC(=O)C2CC(=O)NC3=C2C(=O)CCC3)c1 (centres undefined)
→ -3	.	i	0.92	101	-75	111
Cc1cc(NC(=O)CCC(=O)N(c2ccccc2)C(C(=O)NC2CCCCC2)c2cccs2)no1 (centres undefined)
→ -7	-2.1	i	0.98	101	-323	43
COc1ccc(C(=O)c2sc(Nc3ccccc3)c(C(=O)Nc3ccc(OC)c(OC)c3)c2N)cc1
→ 0	-3.0	i	0.9	102	14	129

Sorted by the number under HSV replic up primary fold (high to low): three from the list above
SMILES	PKD1 kinase inh	GALR2 ag	HSV replic up primary fold	RGS16-Gao HTS
COc1ccc(CC(=O)NCc2nnc(SCc3ccc(C)cc3)n2C)cc1	0	0.0	1	103
CCOc1ccc(NC(=O)CN(C)S(=O)(=O)c2ccc3c(c2)CCC(=O)N3)cc1	.	.	0.98	99
O=C(CSc1ncnc2ccccc12)Nc1cccc(S(=O)(=O)N2CCCC2)c1	4	.	0.77	103

Compound profiles, from the list above. Order of values: PKD1 kinase inh	GALR2 ag	HSV replic up	HSV replic up primary fold	RGS16-Gao HTS	Insulin prom inh	Insulin prom inh cell count
COc1ccc2cc3c(N)nn(C(=O)c4ccccc4[N+](=O)[O-])c3nc2c1 as listed: -8	-1.7	i	0.52	104	57	104
COc1ccc(/C=C/C(=O)N(C(C)C)C(C)C)cc1Br as listed: 5	-4.2	i	1	106	-25	113
Cc1onc(-c2c(Cl)cccc2Cl)c1C(=O)NC1C(=O)N2C1SC(C)(C)C2C(=O)O (centres undefined) as listed: -2	.	i	1.1	109	-15	71
Cc1cc(C(=O)Nc2ccccc2)c(C)o1 as listed: 1	-1.3	.	.	97	35	94

Rows were taken by chance, and some 1.3% of all compounds hit somewhere here.
